Compound activity: PubChem, National Center for Advancing Translational Sciences (NCATS)
AmpC inh no det – AmpC beta-lactamase inhibition, detergent-free assay | P00811 | AmpC nitrocefin hydrolysis, absorbance 480 nm, no detergent; potencies from a single point are estimates | AID 585 | 71,000 tested, 1.8% active | Potency, µM (doses to about 28.7 µM), without a hit: top-dose activity change, negative = inhibition; active = falling curve, for most hits resting on a single point; inconclusive = weak or doubtful change; inactive = flat or rising curve; further: % of control where 0% means no effect; about half of the hits show no inhibition at the top dose; a quarter of the inactives give rising signals
Target sequence (P00811 whole entry, looked up): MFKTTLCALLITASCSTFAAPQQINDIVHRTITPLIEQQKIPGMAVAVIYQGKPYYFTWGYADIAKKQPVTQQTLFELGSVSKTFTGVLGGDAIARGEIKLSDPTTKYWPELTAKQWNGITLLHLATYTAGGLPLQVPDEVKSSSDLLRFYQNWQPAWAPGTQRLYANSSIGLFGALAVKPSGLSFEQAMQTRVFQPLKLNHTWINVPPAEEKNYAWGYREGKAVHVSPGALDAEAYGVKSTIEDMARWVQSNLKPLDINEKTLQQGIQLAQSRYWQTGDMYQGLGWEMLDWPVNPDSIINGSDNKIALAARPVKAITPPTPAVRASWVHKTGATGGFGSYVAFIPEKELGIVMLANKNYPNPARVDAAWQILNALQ
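Enzyme, pH 7.0 phosphate. Compound titrations were pre-incubated with AmpC for 15 min at room temperature before nitrocefin (stock 800 uM) addition; product formation was recorded at 480 nm every 20 s for 4 min.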
* = called active by the depositor; ? = inconclusive; & = joins results of further samples; [ ] = another dose, or the depositor's remark. Potency means the concentration at half of the fitted maximal effect. The list is partial, so the mix of outcomes need not match the whole.

Sample of the layout (three entries):
SMILES | AmpC inh no det
COCCNC(=O)C(c1ccc(F)cc1)N(Cc1ccco1)C(=O)CCC(=O)Nc1nccs1 (centres undefined) | 86%
COc1ccc2[nH]cc(CCNc3ncnc4ccc(-c5ccccc5OC)cc34)c2c1 | 10%
Cc1nn(-c2nc3ccccc3s2)c(N)c1-c1ccccc1 | -12%

The list itself, from the first entry:
SMILES | AmpC inh no det
COCCNC(=O)C(c1ccc(F)cc1)N(Cc1ccco1)C(=O)CCC(=O)Nc1nccs1 (centres undefined) | 86%
COc1ccc2[nH]cc(CCNc3ncnc4ccc(-c5ccccc5OC)cc34)c2c1 | 10%
Cc1nn(-c2nc3ccccc3s2)c(N)c1-c1ccccc1 | -12%
O=C(COc1cccc(-n2cnnn2)c1)N1CCOCC1 | -12%
COc1cc(NC(=O)CS(=O)(=O)c2ccccc2)cc(OC)c1OC | -10%
CNC(=O)C1(C)C=CC2(CCCCC2)N1C(=O)OC (centres undefined) | 11%
O=C(Cn1c(=O)oc2ccccc21)NCc1ccco1 | -6%
Cc1cc(C)c2[nH]c(=O)c(CN(Cc3ccc4c(c3)OCO4)Cc3nnnn3C3CCCC3)cc2c1 | 114%
Cc1cc(NC(=O)CCn2c(=O)sc3ccccc32)no1 | -18%
N#Cc1c2n(c3c(=O)n(Cc4ccc(Cl)cc4)cnc13)CCCC2 | 56%
COc1ccc(S(=O)(=O)N2CCC(C(=O)N3CCCCCC3)CC2)cc1 | 45%
Cc1ccc2[nH]c3c(c2c1)CN(C(=O)CN1CCSCC1)CC3 | 59%
CN(C)c1nc2c(c(=O)n(C)c(=O)n2C)n1Cc1ccccc1 | 7%
CN(C)c1ncc2nc(-c3cc(F)cc(F)c3)c(=O)n(-c3ccccc3)c2n1 | -3%
COC(=O)c1c(C)n(Cc2ccc3c(c2)OCO3)c2ccc(O)cc12 | 7%
O=c1cc(-c2ccccc2)[nH]c2[nH]n(-c3ccccc3)c(=O)c12 | -16%
O=C(c1cnccn1)N1CCC[C@@]2(CCN(c3ncccn3)C2)C1 | 14%
CC(=O)NC(CCS(C)(=O)=O)C(=O)Nc1cc(Cl)ccc1Cl (centres undefined) | 1%
Cn1c(=O)cc(SCC(=O)NCCCN2CCN(c3ccc(F)cc3)CC2)c2ccccc21 | 120%
COCCCNc1nc2ccccc2nc1NS(=O)(=O)c1cccs1 | 1%
Cc1cc(=O)n2nc(N3CCCC(C(=O)N4CCN(c5ccccc5)CC4)C3)sc2n1 (centres undefined) | 50%
CCc1nc(SCC(=O)Nc2cc(C)on2)n[nH]1 | -17%
COC(=O)N1CCC2(CC1)CN(c1ccc(-c3ccccc3)cc1)C2 | 24%
CCCCOC(=O)Nc1ccc(S(=O)(=O)Nc2cc(C)nc(C)n2)cc1 | 3.2µM*[single pt active]
CCCN(CCC)CCNC(=O)C(NS(=O)(=O)c1ccc2c(c1)CCC(=O)N2)c1ccccc1 (centres undefined) | 0%
N#Cc1nc(Cc2ccccc2)oc1NCCN1CCOCC1 | 17%
O=C(CSc1nnc(-c2ccc(F)cc2)o1)c1ccc2c(c1)OCCO2 | -24%
CCOC(=O)Nc1sc2c(c1C(=O)OCC)CCC2 | 22%
CCc1ccccc1NC(=O)CC(O)(C(=O)OC)C(F)(F)F (centres undefined) | -4%
CCCc1c(OCCCOc2ccc(OCC(=O)O)cc2)ccc(CC=O)c1O | 60%
O=C(Nc1ccccc1)N1CCCC2(CCN(C(=O)c3cccc(F)c3)CC2)C1 | 47%
CCOC(=O)c1ccc(NC(=O)CSc2nnc(Cn3c(=O)sc4ccccc43)n2C)cc1 | 10%
CCn1c(SCC(=O)Nc2cc(OC)ccc2OC)nnc1C1CCCCC1 | 57%
CCOC(=O)Nc1cccc(Cl)c1C | 1%
COCC(=O)N(C)C1(c2nnnn2CCOC(=O)Nc2ccc(Cl)cc2)CCCC1 | 34%
COCCN1CN=C(Nc2nc(C)c3ccc(C)cc3n2)NC1 | -9%

Quoted at random: two compounds from above, in no set order.
SMILES | AmpC inh no det
Cc1nn(-c2nc3ccccc3s2)c(N)c1-c1ccccc1 | -12%
COCCNC(=O)C(c1ccc(F)cc1)N(Cc1ccco1)C(=O)CCC(=O)Nc1nccs1 (centres undefined) | 86%

Further compounds:
SMILES | AmpC inh no det
O=C(O)CCCC(=O)Nc1ccccc1Br | -9%
O=P(O)(O)CCP(=O)(O)O | 1%[5.75 µM]
CCOc1cc(NC(=O)C2CCCO2)c(OCC)cc1NC(=O)C1CC1 (centres undefined) | 38%
COc1cc2nc(N3CCN(C(=O)OCc4ccccc4)[C@H](C(=O)NC(C)(C)C)C3)nc(N)c2cc1OC | 48%
COc1ccc(-c2nn(-c3ccccc3)cc2C(=O)Nc2nc(CC(C)=O)ns2)cc1 | 85%
CCCCNc1ncnc2c1cnn2-c1ccc(Cl)cc1 | -7%
CC1(C)O[C@H]2[C@@H](O1)[C@@H](On1nnc3ccc(Cl)cc31)O[C@@H]2[C@@H]1COC(C)(C)O1 | 21%[5.75 µM]
COC(=O)C(C)Sc1nc2c(c(=O)n1-c1ccccc1)SCC2 (centres undefined) | 6%
NC1(C(=O)O)CCCCC1 | 22%
O=C(Nc1ccc2nc(-c3cccs3)c(-c3cccs3)nc2c1)N1CCOCC1 | 89%
CCC(=O)Nc1ccc(N2CCN(Cc3ccccc3)CC2)cc1 | -3%
COc1ccc(N(CC(=O)NCc2cccc(OC)c2)S(=O)(=O)c2c(C)noc2C)cc1 | 54%

Among those listed so far, 2 contain a cyano group.
SMILES | AmpC inh no det
N#Cc1c2n(c3c(=O)n(Cc4ccc(Cl)cc4)cnc13)CCCC2 | 56%
N#Cc1nc(Cc2ccccc2)oc1NCCN1CCOCC1 | 17%

Additional entries follow.
SMILES | AmpC inh no det
Cc1n[nH]c(C)c1S(=O)(=O)NCCc1ccc(Cl)cc1 | -15%
Cc1oc(-c2ccccc2)cc1C(N)=O | 0%
CN1CCN(c2ncc3nc(-c4ccccc4)c(=O)n(CCc4ccccc4)c3n2)CC1 | 85%
O=C(Nc1nccs1)c1ccc(COc2ccc(F)cc2)o1 | -11%
N#CCc1nc2n(n1)Cc1ccccc1-2 | -6%
O=C(COc1nsnc1N1CCOCC1)N1CCOCC1 | 2%
CCC(=O)Nc1nnc(SCC(=O)Nc2ccc(F)cc2)s1 | -12%
COc1ccc(OC)c2c1CC(C)(C)NC2=O | 2%
O=C(COC(=O)c1cc(S(=O)(=O)N2CCOCC2)ccc1Cl)Nc1ccc2c(c1)OCO2 | 17%
C1CCC2CCCCC2C1 (centres undefined) | -12%
O=C(CSc1nnc(-c2ccccc2F)o1)OCc1ccccc1 | 10%
Cc1ccc(Nc2cccccc2=O)cc1 | -12%
O=C(Nc1cccc2cccc(NC(=O)c3ccco3)c12)c1ccco1 | ?
O=C(Nc1ccccc1-c1nnn(CC(=O)N2CCN(c3ccccc3)CC2)n1)c1cccs1 | 0%
O=C(O)CN1C(=O)C2C3C=CC(C3)C2C1=O (centres undefined) | 9%
O=C(CNCC1CCCO1)N1CCCc2ccccc21 (centres undefined) | -9%
CCCN1C(=O)C(O)(C2CC(=O)CC(C)(C)O2)c2ccccc21 (centres undefined) | 6%
CCOC(=O)c1cccc(NC(=O)CSc2nc3cccnc3n2C)c1 | 42%
COc1ccc(CNC(=O)C2CC(c3cccc(OC)c3)=NO2)cc1 (centres undefined) | 13%
CCOC(=O)CC1=Nc2ccccc2NC(=O)C1 | -4%
CC(=O)Oc1ccc2cc(-c3nc4ccccc4n3C)c(=O)oc2c1 | 24%
Oc1ccccc1C(=S)N1CCCCCC1 | -16%
O=C(CN1CCN(c2ccccc2F)CC1)Nc1ccccc1F | 43%
[N-]=[N+]=CC(=O)CCCN1C(=O)c2ccccc2C1=O | -4%
O=C(c1ccccc1)c1nc[nH]c1C(=O)Nc1ccccn1 | -14%
CCCN(Cc1cc2ccc(C)cc2[nH]c1=O)C(=O)c1ccccn1 | -5%
Nc1nonc1-c1noc(-c2ccccc2Br)n1 | -11%
COc1ncc2nc(-c3cccc(C#N)c3)c(=O)n(CCC#N)c2n1 | -13%
COc1ccc(C(c2nnnn2C2CCCC2)N2CCN(C3CCCC3)CC2)cc1OC (centres undefined) | 13%
COc1ccc2nc(NC3=NCCC3)sc2c1 | 4%
CCCn1c(SCC(=O)Nc2cccc(C)n2)nnc1-c1ccco1 | 14%
Cc1ccc(NC(=O)CSc2nc3c(c(=O)[nH]2)CCC3)cc1C | -12%
CNc1ccnc(-c2cccc(NS(C)(=O)=O)c2)n1 | -5%
Cc1nc(C)c(C(=O)C2=C(O)C(=O)N(CCCn3ccnc3)C2c2ccccc2)s1 (centres undefined) | -8%
COc1nc(NCCN2CCOCC2)nc(Nc2ccccc2)n1 | 17%
C=CCOc1ccc(C2c3c(oc4ccccc4c3=O)C(=O)N2CCCN2CCOCC2)cc1 (centres undefined) | 115%
COc1ccc(-c2nc3cnc(OC)nc3n(Cc3cccc(OC)c3)c2=O)cc1 | 37%
COc1ccc(C)cc1NC(=O)CCN1CCCC1 | -4%
COc1ccccc1N1CCN(C(=O)CSc2nnc(NC(=O)C3CC3)s2)CC1 | 76%
O=C(NCCOC(=O)c1ccc(Cl)c(S(=O)(=O)N2CCCCC2)c1)c1ccncc1 | 51%
O=C(CSc1ccc2nnc(-c3ccccc3)n2n1)N1CCN(c2ccccc2)CC1 | 7%
CCOc1ccc2nc(NC3=NCN(Cc4ccco4)CN3)nc(C)c2c1 | 0%
Cc1ccc2nc(-c3ccc(SCC(=O)O)nc3)[nH]c2c1 | -8%
CC(C)CCNC(=O)C1C2C=CC3(CN(Cc4ccccc4Cl)C(=O)C13)O2 (centres undefined) | 95%
COc1cccc(OC)c1C(=O)Nc1ccc(CN2CCOCC2)cc1 | -5%
CCC(C)[C@H](NC(=O)NC1CCCc2ccccc21)C(=O)O (some centres undefined) | 7%
COc1cc(C(=O)OCC(=O)c2cc(C)n(C)c2C)cc(OC)c1OC | 106%
Cc1c(C(=O)N2CCCC2)nnn1-c1nonc1N | -15%
Cc1ccc(-c2nn3c(-c4ccco4)nnc3c3ccccc23)cc1S(=O)(=O)NCC1CCCO1 (centres undefined) | 127%
CCCN1CCN(CCCNC(=O)CN2C(=O)COc3ccccc32)CC1 | -4%
Cc1ccc(CNC(=O)c2ccc(Br)o2)cc1 | -9%
CC(=O)Nc1ccc(S(=O)(=O)N2CCC(n3cnc4cc(F)ccc43)CC2)cc1 | 31%
Cn1c(-c2ccc(Br)o2)nc2cc(Br)ccc21 | 2%
COc1ccc(C(C(O)C(=O)c2c[nH]c3ccccc23)N2CCN(c3ccccc3)CC2)cc1 (centres undefined) | 6%
O=C(c1ccccc1)N1CCN(C2CCCCCC2)CC1 | -11%
CCOc1cc2[nH]c(=S)n(CCCC(=O)NCc3ccco3)c(=O)c2cc1OCC | 14%
COc1cc(OC)cc(C(=O)Nc2cc(NC(=O)c3ccco3)ccc2OC)c1 | 47%
COC(=O)c1cc(-c2ccccc2)n[nH]1 | -13%
O=C(Nc1cccc(N2CCCC2)c1)c1cccs1 | -13%
O=c1[nH]c(Cc2cccs2)nc2ccccc12 | -8%
The listing continues.
SMILES | AmpC inh no det
CCN(CC)C1=CC(=O)OC12CCCCC2 | -9%
O=C(Nc1c2c(nn1-c1ccc(F)cc1)CS(=O)(=O)C2)C12CC3CC(CC(C3)C1)C2 | 23%
CC(NC(=O)OCc1ccccc1)C(=O)NCC1CCCO1 (centres undefined) | -10%
CCOc1ccc(-c2noc(=O)[nH]2)cc1 | 5%
Brc1ccccc1-c1nnc2sc(Cc3ccccc3)nn12 | 13%
COc1ccc(C)cc1Nc1cc(C)nc2nc(C)nn12 | 20%
COc1ccc(C)cc1C(=O)CCC(=O)Nc1ccccc1N1CCOCC1 | 54%
CC(=O)c1nc2ccccc2n1S(=O)(=O)c1ccc(C)cc1 | -11%
CC(=O)N1CCc2cc(Br)cc(S(=O)(=O)N3CCN(c4ccccn4)CC3)c21 | 114%
Cc1ccccc1OCCCC(=O)Nc1ccc2c(c1)OCO2 | 0%
CCN1CCN(CCNC(=O)C2CCN(Cc3nc(-c4ccc(Cl)cc4)oc3C)CC2)CC1 | 4µM*[single pt active]
O=C1NC(=O)[C@]2(Cc3ccccc3N3CCN(c4ccccc4)CC32)C(=O)N1c1ccccc1 (some centres undefined) | 10%

Sorted by molar mass (low to high): six of the compounds above
SMILES | AmpC inh no det
CC(NC(=O)OCc1ccccc1)C(=O)NCC1CCCO1 (centres undefined) | -10%
Cc1ccccc1OCCCC(=O)Nc1ccc2c(c1)OCO2 | 0%
Brc1ccccc1-c1nnc2sc(Cc3ccccc3)nn12 | 13%
O=C(Nc1c2c(nn1-c1ccc(F)cc1)CS(=O)(=O)C2)C12CC3CC(CC(C3)C1)C2 | 23%
O=C1NC(=O)[C@]2(Cc3ccccc3N3CCN(c4ccccc4)CC32)C(=O)N1c1ccccc1 (some centres undefined) | 10%
CCN1CCN(CCNC(=O)C2CCN(Cc3nc(-c4ccc(Cl)cc4)oc3C)CC2)CC1 | 4µM*[single pt active]

Further results
SMILES | AmpC inh no det
CCOC(=O)N1CCN(C(=O)C(c2ccccc2)c2ccccc2)CC1 | 86%
Cc1onc(-c2c(F)cccc2Cl)c1C(=O)Nc1ccc(S(=O)(=O)Nc2ncccn2)cc1 | -8%
CC(C)(C)c1o[nH]c(=O)c1C[C@H](N)C(=O)O | 4%&11%
Cc1nc2c(-c3ccc(F)cc3)c(C)nn2c(C)c1CCC(=O)N1CCN(c2ccccn2)CC1 | 40%
O=c1[nH]c(SCc2ccccc2Cl)nc2c1CCCC2 | 0%
CCN(CC)C(=O)Cn1cnc2c1c(=O)n(C)c(=O)n2C | -6%
O=C(c1ccc(Cl)cc1)N1CCN(c2nc(N3CCCCC3)nc(N3CCCCC3)n2)CC1 | 4%
Cc1cc2nc(NC3=NCN(CCN4CCOCC4)CN3)nc(C)c2cc1C | -7%
O=C(O)CCCC[C@H]1CCSS1 | -9%
CCOC(=O)c1sc2ncn(C(C)C(=O)OC)c(=O)c2c1C (centres undefined) | 25%
